Bioassay records: PubChem, National Center for Advancing Translational Sciences (NCATS)
SARS PLP yeast: qHTS of Yeast-based Assay for SARS-CoV PLP; S. cerevisiae expressing SARS-CoV PLpro, growth rescue; control for the full effect not named in the record; Potency, µM (doses to about 32.9 µM), without a hit: top-dose activity, positive = growth rescue; 0.19% of 330,000 active; AID 485353, 2010; also: 0% is about no effect; nearly all actives have a fitted effect of over 55% in size; growth read by luminescence after 48 h
Cruzain inh Det: qHTS Assay for Promiscuous and Specific Inhibitors of Cruzain (with detergent); 0.43% of 200,000 active; purified cruzain, Z-FR-AMC fluorescence, 0.01% Triton; Potency, µM, for the others: max response, negative = inhibition, hits mostly inhibitors; active = well fitted curve in the direction sought with a large enough effect; inconclusive = small, poorly fitted or top-dose-only effect, or another doubt; inactive = no such curve, though single readings can be large; an effect the other way counts as inactive or inconclusive;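 also: plate controls were neutral wells for no effect and buffer without enzyme for full effect; nearly all actives have a fitted effect of over 40% in size; top concentration of the series not given in the record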
Target sequence (P25779 123-467 limits assumed): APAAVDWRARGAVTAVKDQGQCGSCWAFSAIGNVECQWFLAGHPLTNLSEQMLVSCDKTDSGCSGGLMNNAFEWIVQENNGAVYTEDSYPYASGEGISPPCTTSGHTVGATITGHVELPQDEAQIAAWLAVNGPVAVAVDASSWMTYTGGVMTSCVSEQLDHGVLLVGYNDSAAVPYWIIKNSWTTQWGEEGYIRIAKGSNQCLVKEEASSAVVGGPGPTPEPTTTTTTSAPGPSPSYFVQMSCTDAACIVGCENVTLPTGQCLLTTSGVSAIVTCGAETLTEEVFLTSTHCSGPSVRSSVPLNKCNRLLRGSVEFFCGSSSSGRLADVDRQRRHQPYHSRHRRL
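Enzyme 1.5 nM, Z-FR-AMC 2 uM, NaOAc 100 mM pH 5.5, DTT 5 mM, Triton X-100 0.01%; 15 min RT compound preincubation; kinetic ex360/em450, 60 s delta.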
Cruzain inh noDet: qHTS Assay for Promiscuous and Specific Inhibitors of Cruzain (without detergent); 2.3% of 200,000 active; purified cruzain, Z-FR-AMC fluorescence, no detergent; Potency, µM, inactives show max response, negative = inhibition, usual class: inhibitors; active = well fitted curve in the direction sought with a large enough effect; inconclusive = small, poorly fitted or top-dose-only effect, or another doubt; inactive = no such curve, though single readings can be large; an effect the other way counts as inactive or inconclusive;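 also: plate controls were enzyme without inhibitor for no effect and buffer without enzyme for full effect; nearly all actives have a fitted effect of over 40% in size; top concentration of the series not given in the record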
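Detergent-free condition (0.00005% Triton X-100) in acetate buffer pH 5.5 with DTT. 1.5 nM enzyme and compound were pre-mixed 15 min, then 2 uM Z-FR-AMC substrate added; reaction progress from fluorescence change between first and third reads (60 s).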
MARV entry inh: qHTS for inhibitors of binding or entry into cells for Marburg Virus | Marburg virus pseudotyped entry inhibition, cell reporter; control for the full effect not named in the record; about a third of the inactives were read at about 46 µM | Potency, µM (highest dose often 37.8 µM), for the others: top-dose activity change, negative = inhibition, actives largely listed as inhibitors | 1.8% of 300,000 active; active = well fitted inhibition curve with a large enough effect; inconclusive = small, poorly fitted or top-dose-only effect, or effect the other way; inactive = flat fitted curve, though single readings scatter; tested in HEK293 cells; about a fifth of its hits are not listed in these tables; also: % is scaled to controls: 0 for no effect and ±100 for the full control effect; luciferase read-out
2A StopGo: High Throughput Screening for Foot and Mouth Disease Virus Antivirals; 1.2% of 410,000 active; human cells with a luciferase reporter of 2A StopGo recoding; control for the full effect not named in the record; Potency, µM (titrated, usually from 57.9 µM), without a hit: top-dose signal change, negative = less light; AID 1159524, 2015; active = well fitted falling curve with a large enough effect; inconclusive = small, poorly fitted or top-dose-only effect; inactive = no such curve, though single readings can be large or run the other way; tested in HEK293T cells; also: % is scaled to controls: 0 for no effect and ±100 for the full control effect; nearly all actives have a fitted effect of over 45% in size; luciferase light after 4 h
RE007 growth inh: qHTS Assay for Inhibitors of the HIV-1 protein Vpr; AID 651644, 2012; Potency, µM (titrated, usually from 92.2 µM), inactives show at the top dose activity change, negative = less growth; 0.21% of 360,000 active; S. pombe RE007 Vpr strain, BacTiter-Glo ATP luminescence, 24 h; control for the full effect not named in the record; active = well fitted falling curve with a large enough effect; inconclusive = small, poorly fitted or top-dose-only effect; inactive = no such curve, though single readings can be large or run the other way;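 also: % is scaled to controls: 0 for no effect and ±100 for the full control effect; nearly all actives have a fitted effect of over 50% in size; the assay follows cell death caused by Vpr and the record does not say whether a fall means rescue or toxicity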
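Fission yeast RE007 carrying one integrated HIV-1 vpr copy, seeded at OD 0.01 in PMG+AL medium with 23 nL pinned compound. Grown 24 h at 30 degrees; viability read by BacTiter-Glo luminescence after 5 min.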
LASV entry inh: qHTS for Inhibitors of binding or entry into cells for Lassa Virus; Lassa virus pseudotype entry inhibition, cell reporter; control for the full effect not named in the record; Potency, µM (highest dose often 37.9 µM), for the others: at the highest dose activity change, negative = inhibition, most hits filed as inhibitors; 1.2% of 300,000 active; AID 540256, 2011; active means well fitted inhibition curve with a large enough effect; inconclusive means small, poorly fitted or top-dose-only effect, or effect the other way; inactive means flat fitted curve, though single readings scatter; tested in HEK293 cells; also: % is scaled to controls: 0 for no effect and ±100 for the full control effect; nearly all actives have a fitted effect of over 50% in size; luciferase read-out
NS1 inh: qHTS Assay for Inhibitors of Influenza NS1 Protein Function; 0.4% of 270,000 active; S. cerevisiae slowed by influenza A NS1, growth recovery by OD600; Potency, µM (highest dose often 46.1 µM), without a hit: at the top dose activity, positive = more growth; also: actives are rising curves; nearly all actives have a fitted effect of over 50% in size
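Compounds were scored for reversing the slow growth caused by influenza A NS1 in S. cerevisiae, measured by optical density at 600 nm. Assay medium contained 2% galactose at pH 6.0; NS1-free yeast of the same strain were the positive control.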
An asterisk follows results filed as active; ? = inconclusive; nt = no result given; [ ] = another dose, or the depositor's remark. Unless noted, calls follow the shape of the dose curve; as a rule, active means well fitted rising curve with a large enough effect; inconclusive means small, poorly fitted or top-dose-only effect; inactive means no such curve, though single readings can be large or run the other way. Potency is read from the fitted curve at half-maximal effect.

SMILES	SARS PLP yeast	Cruzain inh Det	Cruzain inh noDet	MARV entry inh	2A StopGo	RE007 growth inh	LASV entry inh	NS1 inh
CCc1cccc(C)c1NC(=O)C1CC=CCC1C(=O)O (centres undefined)	-1%	nt	nt	18%[46.1 µM]	15%	11%	-1%[46.1 µM]	-2%
CC1(C)CC(=O)C(C=NCCN2CCN(C3CC(=O)N(c4cccc(Br)c4)C3=O)CC2)=C(O)C1 (centres undefined)	-5%	nt	nt	16%	-19%	-2%	10%	-50%
O=C(c1ccc(Cl)c(Cl)c1)N1CCN(c2ccccn2)CC1	0%	nt	nt	?	-21%	-6%	4%	-24%
CN(C)c1ccc(N=Cc2nc(-c3ccccc3)oc2OC(=O)c2ccccc2)cc1	-17%	-14%	?	?	18%	?	?	4%
CCN(CC(=O)NC1CCS(=O)(=O)C1)S(=O)(=O)c1ccc(C)c(C)c1 (centres undefined)	-1%	2.2%	5%	5%	5%	12%	?	?
CSc1ccc(CNC(=O)C2Cc3cc(S(=O)(=O)N4CCCC4)ccc3N2C(C)=O)cc1 (centres undefined)	7%	nt	nt	nt	22%	5%	nt	-3%
Cc1cc(NC(=O)CCC(=O)N(c2ccccc2)C(C(=O)NCC2CCCO2)c2cccnc2)no1 (centres undefined)	3%	2.0%	4%	1%	2%	20%	-3%	-6%
O=C(c1ccccc1)c1cc2ccccc2oc1=O	0%	nt	nt	-1%[46.1 µM]	30%	-5%	24%[46.1 µM]	-7%
CC1(OC(=O)CCc2ccccc2)C(=O)C=C2C=C(c3ccc(C#N)cc3)N(C(CO)CO)C=C2C1=O (centres undefined)	7%	nt	nt	?	-16%	-24%	nt	3%
CCc1ccc2[nH]c(=O)c(CN(CCCO)C(=O)NCc3ccccc3)cc2c1	-3%	3.2%	8%	-6%	-8%	1%	6%	10%
CCN1CCN(CC(=O)N/N=C/c2cc(Br)cs2)CC1	13%	nt	nt	nt	-2%	7%	nt	2%
CC(NS(=O)(=O)c1ccc(OCC(=O)N2CCCC2)cc1)c1ccccc1 (centres undefined)	4%	nt	nt	1%[46.1 µM]	2%	3%	1%[46.1 µM]	4%
COc1ccc(CCNC(=O)CSc2nc3c(c(=O)n(C)c(=O)n3C)n2C)cc1OC	8%	-1.2%	-17%	12%	6%	19%	-7%	-2%
CC(CC(=O)O)NCC1COc2ccccc2O1 (centres undefined)	nt	nt	nt	5%[46.1 µM]	7%	-3%	12%	-4%
O=C(COC(=O)c1ccco1)NCc1ccc2c(c1)OCO2	-2%	nt	nt	nt	14%	2%	nt	1%
O=C(Nc1cccc(-c2ccc(N3CCOCC3)nn2)c1)c1ccc([N+](=O)[O-])cc1	-2%	nt	nt	?	-2%	-3%	-2%	nt
COc1ccc(/C=C/C(=O)c2ccc(C)c([N+](=O)[O-])c2)cc1O	-92%	-13%	6%	?	-26%	nt	?	-64%
Cc1cc(C)c(Cn2ncn(-c3ccc(Br)cc3)c2=O)c(C)c1	-1%	nt	nt	0%[46.1 µM]	8%	6%	6%[46.1 µM]	3%
CN(C)c1ccc(C(=O)OCC(=O)N2CCCCCC2)cc1	0%	nt	nt	?	16%	-29%	-8%[46.1 µM]	nt
CCOc1ccc(OCCC(=O)OCC(=O)NC2CCCCC2)cc1	0%	nt	nt	-1%	-23%	1%	11%	7%
O=c1[nH]c(/C=C/c2ccccc2OC(F)F)nc2c1cnn2-c1ccccc1	18%	-1.5%	-4%	?	-6%	8%	?	18%
Cc1ccc(C(=O)CSc2nc(-c3ccccc3)ccc2C#N)cc1	-23%	-4.8%	-13%	2%[46.1 µM]	-9%	13%	?	-3%
Cc1ccc(C(=O)C(C)OC(=O)c2ccccc2[N+](=O)[O-])cc1 (centres undefined)	-5%	-4.8%	3%	?	28%	6%	?	4%
Cc1cccc(OCCOc2ccc(/C=N/NC(=O)Cc3nnc(N)s3)cc2)c1	1%	3.3%	5µM*	-3%	nt	nt	nt	2%
NC(CC(=O)O)c1cccc(OCc2ccccc2)c1 (centres undefined)	3%	-2.5%	6%	-10%	0%	-1%	15%	1%
O=C1CCN(Cc2ccccc2)CCN1CCOc1ccccc1	2%	nt	nt	nt	10%	9%	nt	-25%
CCOC(=O)c1cnc(-c2ccccc2)nc1N(C)C	-8%	-4.5%	6%	?	39%	-18%	?	-88%
O=C(CCSCCC(=O)NCc1ccc(F)cc1)NCc1ccc(F)cc1	-8%	-1.8%	-7%	-6%	-11%	-11%	1%	-4%
CCOc1ccc(-c2cc(CCCC(=O)NCCc3cc(OC)c(OC)c(OC)c3)no2)cc1	nt	-3.1%	?	?	?	nt	?	nt
COc1cc(NS(=O)(=O)c2ccc(NC(=O)c3ccc(Cl)cc3Cl)cc2)ncn1	0%	nt	nt	1%	-12%	-2%	-21%	13%
O=C(O)[C@@H]1CCCN1S(=O)(=O)c1cccc(S(=O)(=O)N2CCC[C@H]2C(=O)O)c1	6%	nt	nt	nt	-18%	4%	nt	4%
Cc1ccc(NC(=O)COC(=O)CN2C(=O)NC3(CCCC3)C2=O)cc1S(=O)(=O)N(C)C	-2%	nt	nt	nt	64%[activator]	-1%	nt	-7%
C=CCSC(=S)Nc1c(C)n(C)n(-c2ccccc2)c1=O	2%	nt	nt	0%[46.1 µM]	?	-17%	4%	nt
CCCC(NC(=O)Cc1c(C)c2cc3c(C)c(C)oc3c(C)c2oc1=O)C(=O)N[C@@H](Cc1ccccc1)C(=O)O (some centres undefined)	-1%	nt	nt	nt	-21%	0%	nt	0%
CCC(C)Cn1cnc2c(Sc3c([N+](=O)[O-])ncn3C)nc(N)nc21 (centres undefined)	nt	nt	nt	?	?	19%	5%[46.1 µM]	nt
Cc1c(Cl)cnc(NC(=O)COC(=O)CCC(=O)c2cccs2)c1Cl	-6%	-4.6%	-1%	2%[46.1 µM]	0%	13%	1%	-6%
Cc1ccc(N2CCN(/N=C/C=C/c3ccccc3)CC2)cc1	-25%	-0.3%	?	3%	-4%	11%	?	6%
COCCCn1c(SCc2ccccc2F)nc2c(sc3ccccc32)c1=O	nt	2.7%	17%	nt	0%	nt	?	nt
COc1ccc(CN/C(C)=C(/C#N)C(N)=O)cc1OC	-12%	2.8%	-11%	7%	24%	-4%	?	1%
OCC1(Cc2ccccc2)CCN(Cc2cccc(F)c2F)CC1	0%	nt	nt	nt	-8%	-6%	nt	3%
Cc1ccc2nc(NCCC(=O)O)nc(-c3ccccc3)c2c1	3%	nt	nt	12%[46.1 µM]	-11%	-1%	5%[46.1 µM]	nt
Cc1cccc(NC(=O)Cn2c([N+](=O)[O-])cnc2C)c1C	-8%	-0.6%	-4%	nt	nt	nt	nt	3%
O=C(NCC(c1cccnc1)N1CCN(c2ccc(F)cc2)CC1)c1ccco1 (centres undefined)	-1%	nt	nt	nt	-10%	-19%	nt	-2%
Cc1ccc(Cl)cc1NC(=O)c1ccc(NC(=O)N2CCSc3ncccc32)cc1	nt	-10%	-3%	nt	?	nt	-19%[46.1 µM]	nt
O=S(=O)(c1ccc(NC(=S)N2CCN(c3ccc(O)cc3)CC2)cc1)N1CCOCC1	0%	nt	nt	-5%[46.1 µM]	-22%	3%	-15%	nt
Cc1occc1C(=O)N1CCCc2ccccc21	-13%	3.1%	1%	15%	-6%	6%	-5%	-5%
Nc1nc(SCCC(F)=C(F)F)n[nH]1	0%	nt	nt	6%[46.1 µM]	-1%	5%	26%	7%
N#CC1CC(c2ccccc2)=NN1c1ccccc1[N+](=O)[O-] (centres undefined)	-12%	nt	nt	?	22%	5%	?	nt
COc1cc(C(O)c2nc3ccccc3n2C)cc(OC)c1OC (centres undefined)	1%	6.0%	3%	1%[46.1 µM]	-14%	-19%	-3%	-4%
COc1ccc(OC)c2c1sc(=NC(=O)CN1C(=O)CCC1=O)n2C	4%	3.4%	-9%	-6%	nt	nt	nt	5%
Cc1ccc(S(=O)(=O)NC(CC(C)C)C(=O)Nc2ccncc2)cc1 (centres undefined)	-12%	nt	nt	2%	26%	3%	1%	nt
O=C(Nc1ccccc1)OCc1cncs1	1%	nt	nt	?	20%	0%	1%[46.1 µM]	-2%
Cc1cc(C)cc(NC(=O)N2CCC(NC(=O)c3ccccc3C)CC2)c1	11%	-3.0%	-2%	3%	-6%	12%	?	10%
COc1cccc(N2CCN(C(=O)C3CCCN(S(=O)(=O)c4ccc(Br)s4)C3)CC2)c1 (centres undefined)	nt	-4.2%	-29%	?	18µM*	nt	?	nt
O=C(O)C1C(C(=O)Nc2ccc(Cl)cc2)C2C=CC1C21CC1 (centres undefined)	8%	-0.5%	-3%	3%	-10%	10%	5%	-1%
Cc1c(C(=O)NCc2ccccc2)oc2ccc(S(=O)(=O)N3CCC4(CC3)OCCO4)cc12	-10%	4.7%	?	?	?	-5%	?	?
N#Cc1ccccc1Cn1c(=O)oc2ccccc21	-6%	nt	nt	nt	24%	4%	nt	11%
Cc1cccc(OCCOCCN2CCOCC2)c1C	2%	3.6%	-5%	20%	nt	-6%	9%	14%
CC(C)Oc1ccc(C2CC(=O)N(c3cccc(Br)c3)C2=O)cc1 (centres undefined)	-6%	nt	nt	nt	-12%	-15%	nt	-2%
CC(=O)c1cccc(NC(=O)C2=CC(c3cccs3)=NS(=O)(=O)N2C)c1	0%	nt	nt	-22%[46.1 µM]	-11%	5%	-14%[46.1 µM]	7%
O=C(N/N=C\c1cccc(F)c1)c1ccc(Cn2cc(Br)c([N+](=O)[O-])n2)o1	-1%	nt	nt	?	-11%	1%	9%	6%
COC(=O)c1ccc(C)c(NC(=O)CCCN2C(=O)NC(C)(C)C2=O)c1	-3%	nt	nt	-2%	-18%	11%	17%	nt
O=C1CC(c2ccc(Cl)c(Cl)c2)CC(O)=C1C=NCCN1CCNCC1 (centres undefined)	-1%	-5.7%	-1%	1%	nt	nt	nt	-18%

Random draw from the library; about 4.5% have a hit in one of these screens.
